Screens as filed in PubChem.
PMP22 txn prim: modulates PMP22 transcription in S16 Schwann cells; S16 Pmp22-F2sN Schwann cells (luciferase reporters placed in the Pmp22 gene), FLuc/NLuc coincidence luminescence, 24 h; Potency, µM (doses to about 57.5 µM), for inactives: at the highest dose activity change, negative = inhibition, most hits filed as inhibitors; hit rate 2% among 43,000; active = clear falling dose curves in both reporters; inconclusive = both reporters move, but less clearly or upward; inactive = either reporter flat; the % is the NLuc reporter signal; also: % is scaled to controls: 0 for no effect and ±100 for the full control effect; some results filed as inactive show a strong effect at the top dose
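S16 Schwann cells carrying FLuc/NLuc coincidence reporter in the Pmp22 3' UTR treated with compound 24 h at 37C; FLuc then NLuc luminescence read sequentially by dual-luciferase reagents.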
HTT prom inh: inhibits huntingtin promoter activity; HEK293 HTT promoter firefly luciferase reporter (activity 0% = vehicle and -100% = no light), 24 h; hit rate 0.93% among 48,000; Potency, µM (highest dose often 57.5 µM), without a hit: at the top dose activity change, negative = inhibition, actives largely listed as inhibitors; active = well fitted inhibition curve with a large enough effect; inconclusive = small, poorly fitted or top-dose-only effect; inactive = no such curve, though single readings can be large or run the other way; also: nearly all actives have a fitted effect of over 50% in size
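HEK293 Fluc reporter, 2,500 cells/well, 24 h pre-culture; cpds up to 57.5 uM final, 24 h 37 degrees C; Dual-Glo, 10 min RT; normalized vehicle = 0%, zero RLU = -100%.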
Starred values were filed as active, the others as inactive; ? = inconclusive; . = no result given; [ ] = dose if it differs, or a comment. Potency is read from the fitted curve at half-maximal effect. This is a random part of the collection. Share with any hit: about 2.7%.

compound | PMP22 txn prim | HTT prom inh
CCOc1ccc(NC(=O)CSc2oc(-c3ccco3)nc2S(=O)(=O)c2ccc(Cl)cc2)cc1 | 16.0% | ?
OCC(CO)N[C@H]1C[C@](O)(CO)[C@@H](O)[C@H](O)[C@H]1O | . | -5.8%
CCCCNC(=O)CCC1N=C2c3ccccc3N=C(SCC(=O)NCCc3ccc(OC)c(OC)c3)N2C1=O (stereo unspecified) | 23.1% | -15.6%
CC(=O)OCC(=O)[C@@]12OC(C)(C)O[C@@H]1C[C@H]1[C@@H]3C[C@H](F)C4=CC(=O)C=C[C@]4(C)[C@@]3(F)[C@@H](O)C[C@@]12C | . | 7.0%
CCc1ccc(NC(=O)CN2C(=O)C3(SCC(=O)N3c3ccc(F)c(F)c3)c3ccccc32)cc1 (stereo unspecified) | ? | ?
O=C(c1cc2ccccc2oc1=O)N1CCN(c2ccc(Cl)cc2)CC1 | -32.9% | -23.8%
Fc1ccc(-c2noc3ncnc(NCCc4ccccc4)c23)cc1 | ? | ?
CCn1c2ccccc2c2nnc(N3CCN(c4ccc(OC)cc4)CC3)nc21 | -36.4% | 5.1%
COc1ccc(Cn2c(SCC(=O)N(C)Cc3ccccc3)nc3ccccc32)cc1 | 20µM* | 4.2%
CC(C)Oc1ccc(CNC(=O)CN2C(=O)CCn3nc(-c4cn(C)c5ccccc45)cc32)cc1 | 0.8% | 5.4%
CCCOC(=O)c1cccc(Nc2nc(C(=O)OCC)nc3ccccc23)c1 | ? | ?
Cc1cccc(-c2noc(-c3ccc(NC4CCCC4)c([N+](=O)[O-])c3)n2)c1 | -23.9% | 10.3%
Cc1cc2oc(C(=O)N(Cc3ccc(N(C)C)cc3)CC3CCCO3)c(C)c2cc1C (stereo unspecified) | -5.0% | -18.6%
COc1ccc(NC(=O)c2ccc(-c3nc(CSc4ccc(C)cc4)c(C)o3)cc2)cc1Cl | ? | 4.47µM*
CC[C@H](c1ccc(O)cc1)[C@@H](CC)c1ccc(O)cc1 | . | -17.4%
COc1ccc(-c2[nH]ncc2C(=O)NCc2cccc(OC)c2)cc1 | 3.4% | -26.6%
CCOC(=O)c1c(C)[nH]c(CCC(=O)Nc2ccc(OC)c(OC)c2)c1C | ? | -12.1%
CCN(CC)C(=O)Cn1c(=O)n(CCc2ccccc2)c(=O)c2ccccc21 | -29.3% | -11.0%
COc1ccc(CNC(=O)c2cnc(N3CCOCC3)c3ccccc23)cc1 | -22.9% | -16.1%
O=C(Nc1ccccc1C(=O)OCc1cc(=O)n2c3c(sc2n1)CCCC3)c1ccc(Cl)cc1 | ? | ?
O=C(NCCCN1CCN(c2ccccc2)CC1)c1cc2c(s1)-c1ccccc1OC2 | ? | ?
Cc1c(Cl)cccc1Nc1nn2c(=O)c3ccc(C(=O)NCCC4=CCCCC4)cc3nc2s1 | ? | -26.3%
CN(CCCNC(=O)c1cc2c(=O)n(C)c3ccccc3c2s1)Cc1ccccc1 | ? | 4.7%
Cc1ccc(CCNC(=O)c2cc3c(s2)-c2c(C)cccc2OC3)cc1 | ? | -20.3%
CCc1ccc(C(=O)C(C)CN2CCCCC2)cc1 (stereo unspecified) | . | 0.1%
O=C(NCc1cccc(Br)c1)c1cnn(-c2ccc(F)cc2)c1-n1cccc1 | ? | ?
CCC(C(=O)N1CCN(c2ccc(OC)cc2)CC1)n1nc(C)n2c(cc3occc32)c1=O (stereo unspecified) | ? | ?
COc1ccc(Cn2c(C(=O)O)c(CNCc3ccc(C)o3)c3ccc(C)cc32)cc1 | 0.5% | -19.6%
Cc1ccccc1OCc1nnc(SCc2cc(=O)c3ccccc3[nH]2)n1C | 0.7% | -8.6%
Fc1ccc(-n2ncc3c(N4CCCCCC4)ncnc32)cc1 | -2.8% | ?
CC(NC(=O)c1ccc2c(c1)N(Cc1ccc(Cl)cc1)C(=O)c1ccccc1S2(=O)=O)c1ccccc1 (stereo unspecified) | -1.2% | -10.2%
COc1ccc(CNC(=O)C(=O)NCC(c2cccnc2)N2CCN(c3ccccc3F)CC2)cc1 (stereo unspecified) | ? | 12.6µM*
COc1ccccc1NC(=O)Cn1c(=O)n(-c2cccc(C(C)=O)c2)c(=O)c2c3c(sc21)CN(C(C)=O)CC3 | -27.4% | -6.6%
CCc1ccc(NC(=O)Cn2ccn(-c3ccc(C)c(C)c3)c(=O)c2=O)cc1 | -2.7% | 22.4%
CCOC(=O)c1cccc(NC(=O)CSc2ncc3c(n2)-c2ccccc2N(C)S3(=O)=O)c1 | -18.1% | -14.8%
CCOc1ccccc1N(C)C(=O)c1cc(S(=O)(=O)NCc2ccc(C)cc2)ccc1F | ? | ?
COC(=O)c1ccc(C(=O)OC)c(NC(=O)c2cnn3c(C(F)F)cc(-c4ccc(C)cc4)nc23)c1 | ? | -11.0%
O=C(CSc1n[nH]c(-c2ccccc2)n1)N1CCCCC1 | ? | 55.0%[activator]
CCC(C(=O)NCc1ccccc1OC)n1nc(C)n2c(cc3occc32)c1=O (stereo unspecified) | -11.9% | -15.2%
COc1ccc(-c2cc(C(F)(F)F)c(C#N)c(SCC(=O)Nc3ccc(F)cc3)n2)cc1 | -16.1% | -15.6%
CCC1CCC(C(=O)NC(C(=O)Nc2cccc(OC)c2)C(C)C)CC1 (stereo unspecified) | 14.4% | 8.5%
CCCc1nnc(NC(=O)Cc2coc3ccc(C(C)C)cc23)s1 | 5.7% | -27.5%
CCC(C)NC(=O)c1ccc2c(c1)N(Cc1ccccc1F)C(=O)c1ccccc1S2=O (stereo unspecified) | ? | -9.8%
CC(C)(C)c1ccc(Oc2nc3ccccn3c(=O)c2/C=C(\C#N)c2nc3ccccc3s2)cc1 | -180.3% | -8.9%
C[C@H]1C[C@@H]2[C@H]([C@@H](O)C[C@@]3(C)[C@H]2CC[C@]3(O)C(=O)CO)[C@@]2(C)C=CC(=O)C=C12 | . | 7.6%
COc1ccc(C2C(C(=O)Nc3ccccc3)=C(C)Nc3nc(-c4ccccc4)nn32)cc1OC (stereo unspecified) | ? | -15.7%
O=C1CC(c2ccc(Cl)cc2)N=C(NC(=O)c2ccccc2)N1 (stereo unspecified) | -9.0% | ?
Cc1ccc(C2=Nc3ccccc3N(CC(=O)Nc3cccc(F)c3)C(=O)C2)cc1C | -18.3% | 47.6%[activator]
COCCCNC(=O)c1c(NC(=O)c2nc(S(C)(=O)=O)ncc2Cl)sc2c1CCCC2 | 1.96µM* | -2.7%
CNC(=O)c1ccc2cc(C3(O)CCn4cncc43)ccc2c1 (stereo unspecified) | . | 9.9%

Additional structures follow.
compound | PMP22 txn prim | HTT prom inh
O=C(NCc1ccncc1)C12C[C@H]3C[C@@H](C1)CC(c1ccc(Cl)cc1)(C3)C2 | . | -2.7%
COc1ccccc1CNc1nc(-c2ccco2)nn1S(=O)(=O)c1ccc(C)cc1 | 3.1% | 30.7%[activator]
CCOC(=O)C1=C(c2ccccc2)Nc2ncnn2C1c1ccc(Cl)cc1 (stereo unspecified) | -19.3% | -16.2%
Cc1nn(C)c2c1c(C(F)(F)F)cc(=O)n2CC(=O)Nc1ccc(F)cc1F | -15.6% | -29.7%
CN(Cc1ccccc1)C(=O)C1CCN(S(=O)(=O)c2ccc3nc4c(c(C(=O)O)c3c2)CCCC4)CC1 | -7.4% | -3.2%
Cc1ccc(-c2onc(C)c2C)cc1S(=O)(=O)NCc1cccs1 | ? | ?
O=C(Cc1ccc(NC(=O)N2CCCCc3ccccc32)cc1)NCc1ccccc1Br | ? | -11.3%
Cc1ccc2nc(-c3ccc(NC(=O)COc4c(C)ccc(C)c4C)cc3)sc2c1 | -12.9% | 30.9%[activator]
CCSc1nn(CC(=O)Nc2ccc(C(=O)OC)cc2)c(N)c1S(=O)(=O)c1ccc(C)cc1 | 4.2% | ?
CCOC(=O)C(Cc1ccccc1)NC(=O)Cn1nnc(-c2ccc(C)cc2)n1 (stereo unspecified) | -14.7% | 0.7%
Cc1ccc(-n2ncc3c(NC4CCCCCC4)ncnc32)cc1Cl | -4.2% | ?
CC(=O)c1cccc(NC(=O)Cc2noc3ccccc23)c1 | 4.6% | 11.3%
COc1ccc(NC(=O)c2c(NC(=O)COc3ccccc3)sc3c2CCCCC3)cc1 | -0.4% | -5.8%
COc1ccc(-c2noc(-c3ccccc3NC(=O)c3cc(OC)c(OC)c(OC)c3)n2)cc1 | ? | -6.3%
CCC(CO)Nc1ncnc2c1cnn2-c1ccc(C)cc1 (stereo unspecified) | ? | ?
CCOCCc1nn2c(=O)cc(COC(=O)c3ccccc3NC(=O)c3ccccc3F)nc2s1 | ? | 4.6%
CCCN(CCC)C(=O)c1nn(C)c2c1CSc1ccccc1-2 | -5.0% | -11.8%
CC(=O)Nc1ccc(S(=O)(=O)NC2(C(F)(F)F)NC(=O)N(c3ccccc3F)C2=O)cc1 (stereo unspecified) | -35.2% | -4.7%
Cc1ccc2nc(CSc3nnc(NC(=O)CC(C)C)s3)cc(=O)n2c1 | -29.8% | -1.4%
CCn1cc(C(=O)OCC(=O)Nc2ccc(F)cc2F)c(=O)c2ccc(C)nc21 | -14.3% | -12.9%
COc1ccc(NC(=O)Nc2nnc(C)s2)cc1 | ? | 31.2%[activator]
Cc1cccc(C)c1NC(=O)Nc1csc2c1CCCC2 | -34.9% | -17.5%
CCN(CC)CCNC(=O)c1c(C)[nH]c(C=C2C(=O)Nc3ccc(F)cc32)c1C | . | ?
Cc1ccc(Cn2ccn(CC(=O)Nc3c(C)cc(C)cc3C)c(=O)c2=O)cc1 | 6.5% | -22.3%
CC(=O)Nc1ccc(NC(=O)c2oc3c(c2C)-c2nn(Cc4ccccc4Cl)cc2CC3)cc1 | -1.3% | ?

Entries shown so far containing a COOH group:
compound | PMP22 txn prim | HTT prom inh
COc1ccc(Cn2c(C(=O)O)c(CNCc3ccc(C)o3)c3ccc(C)cc32)cc1 | 0.5% | -19.6%
CN(Cc1ccccc1)C(=O)C1CCN(S(=O)(=O)c2ccc3nc4c(c(C(=O)O)c3c2)CCCC4)CC1 | -7.4% | -3.2%

3 entries already listed, arranged by molar mass, lowest first.
compound | PMP22 txn prim | HTT prom inh
CCC(CO)Nc1ncnc2c1cnn2-c1ccc(C)cc1 (stereo unspecified) | ? | ?
CC(=O)Nc1ccc(NC(=O)c2oc3c(c2C)-c2nn(Cc4ccccc4Cl)cc2CC3)cc1 | -1.3% | ?
O=C(Cc1ccc(NC(=O)N2CCCCc3ccccc32)cc1)NCc1ccccc1Br | ? | -11.3%

(list continues)
compound | PMP22 txn prim | HTT prom inh
Cc1nc2cccnc2n1-c1cccc(C(=O)NCCc2ccc(Cl)cc2)c1 | ? | ?
CCOc1ccc(-c2ccc(NS(=O)(=O)c3cc(C)ccc3OC)cc2)nn1 | 4.5% | ?
CCOC(=O)c1[nH]cnc1C(=O)Nc1cccc(OC)c1 | 24.6% | -7.9%
O=C(Cc1ccccc1)Nc1sc2c(c1C(=O)Nc1ccc(Br)cc1)CCC2 | -32.6% | -15.5%
COc1ccc(-c2noc(CC(=O)Nc3ccc(C)c(F)c3)n2)cc1 | 12.4% | 5.6%
CCN(CCCNC(=O)c1cc(Nc2ccccc2OC)nc2ccccc12)c1cccc(C)c1 | ? | ?
Cc1ccc(CN2CCC(CNC(=O)c3cnn(-c4ccccc4Cl)c3C3CCN(C(=O)OC(C)(C)C)CC3)CC2)cc1 | ? | ?
Cc1ccc2oc(=O)n(CCCOc3ccccc3Cl)c2c1 | -20.8% | 64.1%[activator]
CCCCN1C(=O)C(O)(c2c[nH]c3ccccc23)c2cc(Br)ccc21 (stereo unspecified) | ? | -16.9%
COc1ccc(C(=O)Nc2nnc(SCc3cc(=O)c4cc(C)cc(C)c4[nH]3)s2)cc1 | -9.7% | 7.7%
Fc1cccc(Cl)c1Cn1c(-c2cccs2)nc2ccccc21 | -39.0% | ?
O=C(Nc1cccc(O)c1)c1cc2nc(-c3ccc(Br)cc3)cc(C(F)(F)F)n2n1 | ? | -13.7%
Cc1ccc(C)c(N2CCN(c3nc4ccccc4c(=O)n3-c3ccc(Cl)cc3)CC2)c1 | 6.2% | -12.3%
Cc1ccc2oc(-c3cccc(NC(=O)Cc4ccc(Cl)cc4)c3)nc2c1 | -29.2% | -3.9%
CCc1nc2ccc(C(=O)NCc3ccc(SC)cc3)cc2nc1CC | -12.1% | 15.8%
O=C(NC1CC(=O)N(c2cccc(F)c2)C1)c1cccs1 (stereo unspecified) | -21.4% | -1.5%
CCOc1cc(C(=O)Nc2ccc(NC(=O)c3cc4ccccc4o3)c(OC)c2)cc(OCC)c1OCC | -17.4% | -19.5%
CCc1ccc(S(=O)(=O)Nc2cc(-c3cn4ccccc4n3)ccc2C)cc1 | -2.7% | ?
CCCCCCCCCCC[C@@H](C[C@@H]1OC(=O)[C@H]1CCCCCC)OC(=O)[C@H](CC(C)C)NC=O | . | -5.3%

Single values from the entries so far.
Under PMP22 txn prim, Fc1cccc(Cl)c1Cn1c(-c2cccs2)nc2ccccc21 shows -39.0%
Under HTT prom inh, CCOc1cc(C(=O)Nc2ccc(NC(=O)c3cc4ccccc4o3)c(OC)c2)cc(OCC)c1OCC shows -19.5%
Under HTT prom inh, COc1ccc(C(=O)Nc2nnc(SCc3cc(=O)c4cc(C)cc(C)c4[nH]3)s2)cc1 shows 7.7%
Under PMP22 txn prim, Cc1ccc(C)c(N2CCN(c3nc4ccccc4c(=O)n3-c3ccc(Cl)cc3)CC2)c1 shows 6.2%
